# Source: PubChem (National Center for Advancing Translational Sciences (NCATS))
# NS1 inh – qHTS Assay for Inhibitors of Influenza NS1 Protein Function. S. cerevisiae slowed by influenza A NS1, growth recovery by OD600. Potency, µM (series often up to 46.1 µM), for the others: at the highest dose activity, positive = more growth. actives 0.4% (n = 270,000); active means well fitted rising curve with a large enough effect; inconclusive means small, poorly fitted or top-dose-only effect; inactive means no such curve, though single readings can be large or run the other way; also: nearly all actives have a fitted effect of over 50% in size
#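 A cell-based growth assay was used: compounds that relieve NS1-induced slow growth of budding yeast raise OD600. Assay medium was yeast nitrogen base with ammonium sulphate and -URA supplement, pH 6.0, with 2% galactose.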
# SARS PLpro yeast – qHTS of Yeast-based Assay for SARS-CoV PLP | S. cerevisiae expressing SARS-CoV PLpro, growth rescue; control for the full effect not named in the record | Potency, µM (top dose mostly 32.9 µM), for the others: top-dose activity, positive = growth rescue | actives 0.19% (n = 330,000); active means well fitted rising curve with a large enough effect; inconclusive means small, poorly fitted or top-dose-only effect; inactive means no such curve, though single readings can be large or run the other way; also: 0% is about no effect; nearly all actives have a fitted effect of over 55% in size; growth read by luminescence after 48 h
# RE007 growth inh – qHTS Assay for Inhibitors of the HIV-1 protein Vpr; S. pombe RE007 Vpr strain, BacTiter-Glo ATP luminescence, 24 h; control for the full effect not named in the record; Potency, µM (titrated, usually from 92.2 µM), for inactives: at the top dose activity change, negative = less growth; actives 0.21% (n = 360,000); active = well fitted falling curve with a large enough effect; inconclusive = small, poorly fitted or top-dose-only effect; inactive = no such curve, though single readings can be large or run the other way;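 also: % is scaled to controls: 0 for no effect and ±100 for the full control effect; nearly all actives have a fitted effect of over 50% in size; the assay follows cell death caused by Vpr and the record does not say whether a fall means rescue or toxicity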
#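 Fission yeast RE007 carrying one integrated HIV-1 vpr copy, seeded at OD 0.01 in PMG+AL medium with 23 nL pinned compound. Grown 24 h at 30 degrees; viability read by BacTiter-Glo luminescence after 5 min.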
# MARV entry inh – qHTS for inhibitors of binding or entry into cells for Marburg Virus | Potency, µM (doses to about 37.8 µM), without a hit: at the top dose activity change, negative = inhibition, most hits filed as inhibitors | actives 1.8% (n = 300,000) | Marburg virus pseudotyped entry inhibition, cell reporter; control for the full effect not named in the record; about a third of the inactives were read at about 46 µM; active = well fitted inhibition curve with a large enough effect; inconclusive = small, poorly fitted or top-dose-only effect, or effect the other way; inactive = flat fitted curve, though single readings scatter; tested in HEK293 cells; about a fifth of its hits are not listed in these tables; also: % is scaled to controls: 0 for no effect and ±100 for the full control effect; luciferase read-out
# StopGo reporter – High Throughput Screening for Foot and Mouth Disease Virus Antivirals; human cells with a luciferase reporter of 2A StopGo recoding; control for the full effect not named in the record; Potency, µM (series often up to 57.9 µM), for inactives: at the highest dose signal change, negative = less light; actives 1.2% (n = 410,000); AID 1159524, 2015; active = well fitted falling curve with a large enough effect; inconclusive = small, poorly fitted or top-dose-only effect; inactive = no such curve, though single readings can be large or run the other way; tested in HEK293T cells; also: % is scaled to controls: 0 for no effect and ±100 for the full control effect; nearly all actives have a fitted effect of over 45% in size; luciferase light after 4 h
# Cruzain inh Det – qHTS Assay for Promiscuous and Specific Inhibitors of Cruzain (with detergent) | Cruzipain (Trypanosoma cruzi), P25779 | purified cruzain, Z-FR-AMC fluorescence, 0.01% Triton | Potency, µM, for the others: max response, negative = inhibition, hits mostly inhibitors | actives 0.43% (n = 200,000);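 also: plate controls were neutral wells for no effect and buffer without enzyme for full effect; nearly all actives have a fitted effect of over 40% in size; top concentration of the series not given in the record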
# Target sequence (P25779 123-467 limits assumed): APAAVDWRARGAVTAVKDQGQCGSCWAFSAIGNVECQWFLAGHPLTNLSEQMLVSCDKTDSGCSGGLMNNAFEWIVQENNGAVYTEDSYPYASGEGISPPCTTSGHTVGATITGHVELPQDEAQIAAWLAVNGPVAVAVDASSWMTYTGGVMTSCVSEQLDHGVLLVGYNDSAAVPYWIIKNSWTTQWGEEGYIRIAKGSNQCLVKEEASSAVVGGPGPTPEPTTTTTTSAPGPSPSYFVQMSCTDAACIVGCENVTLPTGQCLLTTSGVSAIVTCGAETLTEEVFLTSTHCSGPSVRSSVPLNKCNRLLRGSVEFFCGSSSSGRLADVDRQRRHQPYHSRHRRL
#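 Sodium acetate buffer (100 mM, pH 5.5) containing 5 mM DTT and 0.01% Triton X-100 hosted 1.5 nM cruzain and test compound for 15 min at room temperature. Cleavage of 2 uM Z-FR-AMC was then tracked by fluorescence.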
# LASV entry inh – qHTS for Inhibitors of binding or entry into cells for Lassa Virus | Potency, µM (doses to about 37.9 µM), for inactives: top-dose activity change, negative = inhibition, actives largely listed as inhibitors | actives 1.2% (n = 300,000) | AID 540256, 2011 | Lassa virus pseudotype entry inhibition, cell reporter; control for the full effect not named in the record; active means well fitted inhibition curve with a large enough effect; inconclusive means small, poorly fitted or top-dose-only effect, or effect the other way; inactive means flat fitted curve, though single readings scatter; tested in HEK293 cells; also: % is scaled to controls: 0 for no effect and ±100 for the full control effect; nearly all actives have a fitted effect of over 50% in size; luciferase read-out
# Cruzain inh noDet – qHTS Assay for Promiscuous and Specific Inhibitors of Cruzain (without detergent) | Cruzipain (Trypanosoma cruzi), P25779 | purified cruzain, Z-FR-AMC fluorescence, no detergent | Potency, µM, for the others: max response, negative = inhibition, most hits filed as inhibitors | actives 2.3% (n = 200,000) | AID 1476, 2009;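 also: plate controls were enzyme without inhibitor for no effect and buffer without enzyme for full effect; nearly all actives have a fitted effect of over 40% in size; top concentration of the series not given in the record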
#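 Purified cruzain at 1.5 nM, pre-incubated 15 min with compound at room temperature in 100 mM sodium acetate pH 5.5, 5 mM DTT, 0.00005% Triton X-100. Reaction started with 2 uM Z-FR-AMC; AMC fluorescence increase over 60 s gives rate.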
# The depositor's hits bear a star; u = inconclusive; x = no result given; & = joins results of further samples; [ ] = remark or other dose. Unless noted, calls follow the shape of the dose curve; as a rule, active = well fitted curve in the direction sought with a large enough effect; inconclusive = small, poorly fitted or top-dose-only effect, or another doubt; inactive = no such curve, though single readings can be large; an effect the other way counts as inactive or inconclusive. Potency is read from the fitted curve at half-maximal effect.
SMILES,NS1 inh,SARS PLpro yeast,RE007 growth inh,MARV entry inh,StopGo reporter,Cruzain inh Det,LASV entry inh,Cruzain inh noDet
COCc1nnc(NC(=O)c2ccc(NC(=O)C(C)C)cc2)s1,-8%,4%,-11%,8%,6%,3.2%,-7%,4%
Cc1cccc(NC(=O)COC(=O)Cc2cccs2)c1C,x,-3%,-5%,-15%,-12%,x,0%[46.1 µM],x
Brc1ccc(-c2ccc(/C=N/Nc3nncc(-c4ccccc4)n3)o2)cc1,5%,1%,-12%,14%,-7%,4.6%,-15%,-6%
CCCc1cc(=O)oc2c(CN3CCCC3)c(O)c(Cl)cc12,8%,1%,2%,-13%,8%,32µM*,7%,u
CC(C(=O)N1CCN(c2ccc(Cl)cc2)CC1)c1ncc(C(F)(F)F)cc1Cl (configuration not stated),-46%,-10%,-25%,u,u,-9.0%,0%,u
CC(=O)c1c(C)n(CC(=O)NCc2ccco2)c2ccccc12,0%,1%,2%,u,-22%,x,-27%[46.1 µM],x
CN1CC(=O)N(CC(=O)NCc2ccc3c(c2)OCO3)C1=O,9%,5%,-1%,7%,1%,4.3%,21%,3%
CCOC(=O)C1CCCN(CC(=O)Nc2nccs2)C1 (configuration not stated),u,3%,6%,3%,2%,x,10%,x
O=C(CSc1cccc2cccnc12)N/N=C/c1ccc(O)cc1,-2%,0%,1%,x,-13%,x,x,x
O=C(NCc1ccc(F)cc1)c1ccc2c(c1)N(Cc1ccc(F)cc1Cl)C(=O)CS2,x,x,x,-21%[46.1 µM],-22%,0.0%,3%[46.1 µM],3%
Cc1nnc(SCC(=O)N2CCCC(C(=O)c3ccc(Cl)cc3)C2)o1 (configuration not stated),-3%,0%,-14%,-19%[46.1 µM],-12%,x,36%,x
COc1ccc(CNC(=O)C2CCCN(S(=O)(=O)c3ccccc3)C2)cc1 (configuration not stated),-3%,3%,-7%,x,-3%,x,x,x
O=C(CCC(=O)N(CC(=O)NC1CCCC1)Cc1ccc(F)cc1)Nc1nccs1,-6%,-1%,0%,0%[46.1 µM],-4%,x,x,x
COc1cc(O)c(CCC(=O)c2ccc(OC)c(OC)c2)c(OC)c1,1%,-5%,-3%,x,-4%,x,x,x
CCn1nc(C(=O)OC(C(=O)c2c[nH]c3ccccc23)c2ccccc2)c2ccccc2c1=O (configuration not stated),15%,1%,11%,0%,45%[activator],0.7%,-35%[14.3 µM],u
Cc1ccc(C)c(NC(=O)C(Sc2cccc[n+]2[O-])c2ccccc2)c1 (configuration not stated),x,4%,2%,-13%,-3%,x,-17%,x
CN(C)C(=O)CSc1nnc([C@H](Cc2ccccc2)NC(=O)OC(C)(C)C)o1,3%,1%,4%,x,-9%,x,27%,x
CCC(C)NC(=O)CSc1nc2n[nH]c(C)c2c(=N)n1-c1ccc(OC)cc1 (configuration not stated),2%,-3%,14%,3%,-22%,4.6%,-26%,5%
CC(=O)c1ccc(C(=O)N(C)C2CCCN(Cc3ccccc3F)C2)s1 (configuration not stated),6%,u,0%,3%[46.1 µM],-2%,x,-1%,x
Cc1nn(-c2cccc(Cl)c2)c(Cl)c1/C=N/NC(=O)c1cccs1,2%,9%,6%,u,25%,-0.6%,u,-64%
CSc1ccc(CNC(=O)C2CCCN(S(=O)(=O)N(C)c3ccc(F)cc3)C2)cc1 (configuration not stated),x,x,x,-7%[46.1 µM],u,-5.2%,x,14%
CCN(CC)CCCN1C(=O)CSC1c1ccc2c(c1)OCO2 (configuration not stated),-7%,7%,20%,-5%,-11%,1.8%,11%,-5%
COc1ccccc1N1CCN(C(=O)c2ccc(Cn3c(=O)[nH]c4ccsc4c3=O)cc2)CC1,-6%,-1%,7%,x,-8%,x,x,x
CSc1ncccc1C(=O)NCCc1ccc(Cl)cc1,x,-6%,31%,u,-2%,x,u,x
Cc1cc(=O)oc2c3c(cc(OCC(=O)NCc4ccccc4)c12)OC(C)(C)CC3,-2%,-3%,-5%,x,-28%,x,x,x
Cc1ccnc(NC(=O)c2cccc(NC(=O)c3ccccc3C)c2)c1,0%,-4%,-1%,x,26%,x,x,x
CC(C)Oc1cccc(-c2cc(C(=O)N3CCN(S(C)(=O)=O)CC3)c3ccccc3n2)c1,-25%,0%,-4%,-29%,10%,-7.3%,-12%,u
Cc1cc(NC(=O)CSCC(=O)OCc2nnc(-c3ccccc3)o2)no1,0%,-8%,-14%,2%[46.1 µM],43%[activator],x,18%[46.1 µM],x
CC(=O)c1ccc(NC(=O)C2CCN(S(=O)(=O)c3cccc4cccnc34)CC2)cc1,-51%,-5%,-1%,2%&2%,26%,-4.4%,-1%,-5%
CCCCNC(=O)C12CCC(C)(C(=O)C1Br)C2(C)C (configuration not stated),6%,10%,0%,-12%,-15%,-0.1%,u,6%
COc1cc(NC(=O)C2CCCCC2)c(OC)cc1NC(=O)c1ccccc1,4%,-3%,-9%,14%,26%,x,u,x
C/C(CC(=O)Nc1ccc2c(c1)OCCO2)=N\NC(=O)COc1ccccc1C,-3%,-2%,5%,-3%[46.1 µM],12%,x,15%[46.1 µM],x
COc1ccccc1C(=O)C1CCCN(Cc2cn[nH]c2C2CCCCC2)C1 (configuration not stated),3%,0%,-23%,u,-22%,x,2%[46.1 µM],x
Cc1ccc(Cl)cc1N1CCN(C(=O)c2ccc(CS(=O)Cc3ccc(Cl)cc3)o2)CC1 (configuration not stated),-29%,-6%,6%,x,-8%,x,x,x
CCOc1ccc(-c2nn3c(-c4ccc(OC)cc4)nnc3s2)cc1,1%,-5%,x,-7%,x,0.9%,x,u
O=C(CCc1ccc(S(=O)(=O)N2CCOCC2)cc1)Nc1ccc(F)cc1[N+](=O)[O-],x,-6%,-11%,1%,-20%,x,-2%,x
NC(=O)C(F)(F)C12OC3C4C5CC(C6C5C3C61)C42 (configuration not stated),7%,6%,-11%,6%,x,4.7%,7%,4%
O=C(COC(=O)c1ccc2[nH]c3c(c2c1)CCCC3)Nc1ccccc1,10%,-9%,-8%,-15%,-13%,-4.6%,u,-7%
O=[N+]([O-])c1cc(-c2nc(-c3ccccc3)no2)ccc1N1CCOCC1,x,x,x,u,-9%,-1.9%,-2%[46.1 µM],20%
CCN(CC(=O)NC1CC1)S(=O)(=O)c1ccc(C)cc1,8%,-4%,17%,3%[46.1 µM],-13%,x,0%[46.1 µM],x
CCCn1c(=O)c(C(=O)NCCc2ccc(Cl)cc2)c(O)c2ccccc21,-11%,4%,-9%,x,-25%,x,x,x
CC1=C(c2ccc(C)cc2)[N+](=O)C(C)(C)N1[O-],-1%,-1%,-4%,1%&1%[46.1 µM],-11%,x,-13%[46.1 µM],x
Cc1cc(/C=C2/NC(=S)NC2=O)c(C)n1-c1cccnc1,x,0%,6%,-28%,-3%,x,-19%,x
Cc1ccc(C(=O)NCCNC(=O)c2cccnc2)cc1,9%,0%,10%,3%[46.1 µM],17%,x,9%[46.1 µM],x
O=C1CC(c2ccc(F)cc2)C2=C(CCCC2=O)N1 (configuration not stated),0%,4%,-3%,-3%,-15%,1.9%,3%,-3%
CC(C)(C)OC(=O)N1CCC2(CC1)Oc1ccc(F)cc1C(=O)C21CC(c2cccnc2)=NO1 (configuration not stated),0%,2%,5%,x,u,x,x,x
Cn1c(=O)c(Oc2ccc(F)cc2)c(O)c2ccccc21,-3%,13%,-4%,-3%[46.1 µM],-6%,-5.8%,-7%,-4%
COc1cccc(NC(=O)Nc2ccc3c(c2)CCC3)c1,-4%,-3%,10%,x,32%[activator],x,x,x
Cc1cc(C)n(CCN(C)Cc2cn[nH]c2-c2ccc(F)cc2F)n1,-3%,2%,-26%,x,-1%,x,x,x

# Compounds were not picked by outcome. About 4.5% of those tested had a hit in this group.
